PINK1 expr mod: PINK1 expression modulation; AID 624263; Potency, µM (doses to about 76.6 µM), for the others: top-dose activation (PINK1 increase), most hits filed as activators; PINK1 immunofluorescence, high-content cytometry, 24 h; 0.2% of 410,000 active; active = well fitted activation curve with a large enough effect; inconclusive = small, poorly fitted or top-dose-only effect; inactive = flat fitted curve, though single readings scatter; cell line not stated here;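 further: potency means the concentration at half of the fitted maximal effect; % of control where 0% means no effect; nearly all actives have a fitted effect of over 65% in size; a mitochondrial uncoupler was the plate control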
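Decision-based qHTS: stable cells, 24 h exposure to five compound concentrations, CCCP as control. Fixed cells stained for PINK1 plus nuclear, mitochondrial and cell markers, cytometer read.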
TRPV1 PAM: human TRPV1 potentiation. 0.02% of 320,000 active. TRPV1-expressing cells, Fluo-8 calcium influx, capsaicin EC20 potentiation; host cell line not named in the record; control for the full effect not named in the record. potentiation, % at 8.33 µM. Q8NER1; active means potentiation above 80%; inconclusive means 30% to 80%; inactive means below 30%; further: 0% is about no effect
Target sequence (Q8NER1 whole entry, looked up): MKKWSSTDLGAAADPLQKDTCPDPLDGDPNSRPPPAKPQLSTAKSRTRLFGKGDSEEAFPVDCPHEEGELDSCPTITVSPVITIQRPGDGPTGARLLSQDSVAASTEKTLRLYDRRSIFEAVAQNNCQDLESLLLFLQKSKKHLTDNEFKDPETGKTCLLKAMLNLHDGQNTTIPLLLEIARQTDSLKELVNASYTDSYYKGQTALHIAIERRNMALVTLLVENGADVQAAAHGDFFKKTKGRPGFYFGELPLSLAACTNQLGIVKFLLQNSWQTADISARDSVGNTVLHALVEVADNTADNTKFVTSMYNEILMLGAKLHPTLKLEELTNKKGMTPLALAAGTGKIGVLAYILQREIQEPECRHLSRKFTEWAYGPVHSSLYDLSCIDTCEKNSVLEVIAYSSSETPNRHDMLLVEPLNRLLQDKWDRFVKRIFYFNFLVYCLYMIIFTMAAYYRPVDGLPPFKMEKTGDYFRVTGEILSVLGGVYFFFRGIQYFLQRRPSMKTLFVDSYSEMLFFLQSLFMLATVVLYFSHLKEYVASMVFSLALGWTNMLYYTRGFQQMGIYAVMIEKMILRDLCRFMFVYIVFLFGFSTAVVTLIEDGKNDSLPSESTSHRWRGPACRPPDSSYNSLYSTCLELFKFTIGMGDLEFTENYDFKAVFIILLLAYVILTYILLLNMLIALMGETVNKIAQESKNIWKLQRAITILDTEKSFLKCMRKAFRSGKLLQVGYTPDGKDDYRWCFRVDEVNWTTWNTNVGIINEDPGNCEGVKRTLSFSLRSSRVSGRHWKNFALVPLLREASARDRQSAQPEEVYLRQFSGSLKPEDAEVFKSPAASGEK
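Fluo-8 calcium influx in TRPV1-expressing cells, kinetic read (ex 480/em 520 nm). Compound added and read 3 min for agonist activity, followed by capsaicin at EC20 final and 2 min further read for enhancement.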
D2 agonist: human D2 receptor agonism in beta-arrestin assay; DiscoveRx PathHunter D2 beta-arrestin, luminescence, 90 min; 100% = 57 uM dopamine signal; activation, % (concentration not given with the values); AID 624465; 0.084% of 360,000 active; in the data active = activation above about 40%; inconclusive = about 15% to 40%; inactive = below about 15%; further: compound concentration not given in the record; the text of the record calls up to 30% inactive
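Agonist mode: compounds alone added to overnight-plated D2 PathHunter cells for 90 min at 37 C, with 57 uM final dopamine (EC100) defining full response. Beta-arrestin recruitment detected by chemiluminescent reagent, read after 1 h at ambient temperature.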
D2 potentiator: positive allosteric modulators of human D2 dopamine receptor | P14416 | DiscoveRx D2 beta-arrestin cells, luminescence, 90 min; 100% = 57 uM dopamine signal | potentiation, % (concentration not given with the values) | 0.23% of 360,000 active | AID 624464; active = potentiation of 50% or more; inconclusive = 30% to 50%; inactive = 30% or less;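 further: compound concentration not given in the record; tested on top of an EC20 dose of dopamine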
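PathHunter beta-arrestin assay in DiscoveRx D2 cells. Compounds were added with an EC20 of dopamine (50 nM final) for 90 min at 37 deg C. Luminescence was read 1 h after detection reagent, with 57 uM dopamine as the EC100 control.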
Sfp inh: blocks B. subtilis Sfp PPTase activity. Biochemical Sfp PPTase activity, qHTS. Potency, µM, for inactives: max response, negative = inhibition, most hits filed as inhibitors. 3.5% of 310,000 active; active means well fitted inhibition curve with a large enough effect; inconclusive means small, poorly fitted or top-dose-only effect, or another doubt; inactive means no such curve, though single readings can be large or run the other way;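 further: the enzyme is Sfp with the accession as filed and its product quenches rhodamine fluorescence; potency means the concentration at half of the fitted maximal effect; 0% = enzyme reaction without inhibitor and -100% = no enzyme wells; top concentration of the series not given in the record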
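Sfp 15 nM + cpd, 15 min RT; start w/ rhodamine-CoA 5 uM, BHQ-2-YbbR 12.5 uM (final); 50 mM Hepes pH 7.6, 10 mM MgCl2, 0.01% NP-40, 0.01% BSA; read 525/598 nm at 0 and 30 min.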
CtBP-E1A inh: inhibitors of CtBP/E1A interaction. activity change, % (concentration not given with the values). AlphaScreen GST-E1A/His-CtBP binding, 1536-well; active compounds read low; control for the full effect not named in the record. 0.49% of 340,000 active. AID 651724; in the data active means activity change below about -65%; inconclusive means about -30% to -65%; inactive means above about -30%; further: on the % scale 0 is the no-effect control and ±100 the full control effect
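Protein mix (5X: 125 nM each GST-E1A, His-CtBP) was incubated with pinned compound 2 h at 37 deg C in dark, in 50 mM Tris pH 8.0 buffer with 300 mM NaCl. Glutathione donor and nickel acceptor beads followed; AlphaScreen signal read after 1 h.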
Six1-Eya2 blk: Six1/Eya2 interaction inhibition; AID 651725; activity change, % (concentration not given with the values); 0.56% of 360,000 active; AlphaScreen GST-Six1/His-Eya2 binding, biochemical; active compounds read low; control for the full effect not named in the record; Q15475+O00167; in the data active = activity change below about -65%; inconclusive = about -30% to -65%; inactive = above about -30%; further: on the % scale 0 is the no-effect control and ±100 the full control effect
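GST-Six1 + His-Eya2 (5X stock: 250/500 nM); Tris pH 8.0, 300 mM NaCl, 0.05% BSA, 0.02% Tween 20; GSH donor/Ni acceptor beads; 1 h 37 °C dark; AlphaScreen readout.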
Starred values were filed as active, the others as inactive; ? = inconclusive; . = no result given; & = joins results of further samples; [ ] = remark or other dose. No enrichment for hits; 3.7% or so of the library scored in one or more.

Value order: PINK1 expr mod, TRPV1 PAM, D2 agonist, D2 potentiator, Sfp inh, CtBP-E1A inh, Six1-Eya2 blk
> CCOC(=O)CC1(NC(=O)c2cc(COc3ccc(F)c(F)c3)on2)CCCCC1
  -0.5%, -8, -6.1, -13, 0%, 21, 13
> CC(NC(=O)CCNC(=O)c1ccccc1Cl)C1CC2CCC1C2 (stereo not drawn)
  -1.1%, -4, -3.6, -2, 11%, 1, 2
> NC(CCc1ccccc1)c1csc(NC(=O)Nc2ccccc2Oc2ccccc2)n1 (stereo not drawn)
  -1.3%, ., ?, 1, ., -4, -5
> O=[N+]([O-])c1ccc(Cc2nnc(-c3ccccc3Cl)o2)cc1
  2.2%, -13, 12, 13, 4%, 0, 1
> O=C(NCCSCc1c(F)cccc1Cl)c1ccco1
  0.7%, 8, -0.2, 2, -22%, 3, 1
> O=C(Nc1ccc(Cl)cc1C(=O)NCc1cccnc1)c1ccco1
  30%[38.3 µM], 1, -4.3, -11, 15%, 16, 2
> C[C@@H]1CC2=C(C(=O)OC(C)(C)O2)[C@H](c2ccc(Cl)cc2)O1
  1.4%, ., ., ., ., -1, -3
> O=C(c1cnccn1)N1CCc2ccccc21
  2.7%, 12, -2.2, 0, -10%, 0, -1
> CC(C)C[C@H](NC(=O)N1CCn2c1nc1ccccc12)C(=O)NCc1ccccc1
  0.2%, -6, -0.5, -12, -1%, ., 3
> Cc1noc(C)c1CSc1ccccc1C(=O)Nc1nccs1
  0.6%, 1, -4.2, -17, -2%, -3, -2
> CC(=O)Oc1[nH]c(=O)c2cccc3c2c1CCC3
  0.2%, ., -1.5, 3, ., 0, -5
> CN1CCN(C(CNS(=O)(=O)c2ccc(F)cc2)c2cccnc2)CC1 (stereo not drawn)
  -1.1%, -1, -1.9, -8, 5%, 1, 1
> O=C(Cn1[nH]c(=O)c2ccccc2c1=O)NC1CCCCCC1
  -0.3%, 0, 1.7, -5, 10%, 6, 4
> Cc1cccc2cc(COC(=O)c3ccccn3)c(=O)[nH]c12
  -1.8%, 3, -1.3, -2, 13%, 10, 12
> O=C(CSc1nncs1)Nc1ccc2c(c1)OCCO2
  -0.3%, -6, -1.4, -18, -2%, -6, 8
> O=C(CSc1nnc(-c2cnccn2)n1Cc1ccco1)c1ccc(Cl)c(Cl)c1
  -3.0%, ., -3.1, -14, ?, -17, -17
> O=[N+]([O-])c1ccc2[nH]c3nc4ccccc4nc3c2c1
  -0.5%, -11, -3.9, -40, -8%, ., -9
> COC(=O)C1CCCN1C(=O)COc1ccc(Cl)cc1Br (stereo not drawn)
  0.3%, -10, -4.3, 8, -1%, -16, 1
> O=C(Nc1ccccc1)NC1CCCCC1
  -1.9%, -19, -1.5, -15, -1%, 1, 0
> Cc1c(C(=O)NCCSCc2cccc(C(F)(F)F)c2)cnn1-c1ccc(F)cc1
  2.4%, ., -5.1, -19, 4%, ., 3

Quoted at random: five entries already listed
Value order: PINK1 expr mod, TRPV1 PAM, D2 agonist, D2 potentiator, Sfp inh, CtBP-E1A inh, Six1-Eya2 blk
> Cc1c(C(=O)NCCSCc2cccc(C(F)(F)F)c2)cnn1-c1ccc(F)cc1
  2.4%, ., -5.1, -19, 4%, ., 3
> Cc1cccc2cc(COC(=O)c3ccccn3)c(=O)[nH]c12
  -1.8%, 3, -1.3, -2, 13%, 10, 12
> CC(=O)Oc1[nH]c(=O)c2cccc3c2c1CCC3
  0.2%, ., -1.5, 3, ., 0, -5
> O=[N+]([O-])c1ccc2[nH]c3nc4ccccc4nc3c2c1
  -0.5%, -11, -3.9, -40, -8%, ., -9
> O=C(CSc1nncs1)Nc1ccc2c(c1)OCCO2
  -0.3%, -6, -1.4, -18, -2%, -6, 8

The list continues.
Value order: PINK1 expr mod, TRPV1 PAM, D2 agonist, D2 potentiator, Sfp inh, CtBP-E1A inh, Six1-Eya2 blk
> COc1ccc2cc3cc(C(=O)N4CCCCC4C)oc3nc2c1 (stereo not drawn)
  1.8%, -10, -0.6, -13, 7%, ., -16
> COc1cccc(CSC(C(=O)O)c2ccccc2)c1 (stereo not drawn)
  3.0%, ., -5.6, 4, ., -1, -3
> COc1ccc(NC(=O)Oc2cc(C)ccc2C(C)C)cc1
  5.5%, -2, 3.2, -6, 22%, 5, 5
> O=C(C=C1NCCN1)c1ccccc1
  -0.6%, ., -3.4, -3, ., 6, 2
> CCN(C(=O)c1ccc(S(C)(=O)=O)cc1)C12CC3CC(CC(C3)C1)C2
  -0.4%, -7, 0.7, -16, -9%, 7, 2
> COC(=O)c1oc2ccc(Cl)cc2c1N
  1.9%, -3, -1.0, 3, 4%, -5, -1
> O=C(/C=C\c1ccc(-c2cccc([N+](=O)[O-])c2)o1)N1CCOCC1
  0.6%, -9, 4.2, 7, 20µM*, 2, -14
> COc1ccc(F)cc1C(=O)C1CCCN(Cc2cccn2-c2ccccn2)C1 (stereo not drawn)
  2.5%, 1, -5.6, -16, 12%, -6, 3
> CCOC(=O)C1CCN(Cc2cnc(Oc3ccc(N)cc3)s2)CC1
  -0.7%, 5, ?, 17, 9%, 3, 2
> COc1ccc(NC(=O)CCSc2ccc(C)cc2)cc1
  -0.2%, -4, 0.3, 6, 3%, -3, 17

The list continues:
mol,PINK1 expr mod,TRPV1 PAM,D2 agonist,D2 potentiator,Sfp inh,CtBP-E1A inh,Six1-Eya2 blk
COc1ccccc1-c1cnc(C(O)c2cc(Cl)cc(Cl)c2)[nH]1 (stereo not drawn),12%,.,-1.3,-17,.,-3,-12
Clc1ccccc1CNCc1ccc2c(c1)OCO2,1.2%,.,-2.1,-21,.,-7,2
Cc1ccc(S(=O)(=O)Nc2cccc3cccnc23)cc1,-1.5%,10,-6.5,-33,-1%&6%,?,-71*
CCCCC(=O)Nc1nnc(SCC(=O)Nc2ccc(OC)cc2)s1,?,4,-3.2,-13,-5%,8,4
COc1ccc(S(=O)(=O)N(CC(=O)NCCC(C)C)c2ccccc2)cc1OC,2.7%,7,1.8,-3,22%,-1,1
COc1ccc(Cl)cc1NC(=O)Cn1nc(-c2ccc(C)cc2)n(C)c1=S,?,6,5.1,-22,34%[activator],11,-12
CC(C)N(Cc1ccccc1)C(=O)CN1C(=O)NC2(CCOc3ccccc32)C1=O (stereo not drawn),0.5%,.,-3.3,1,.,0,0
Nc1ccn(C2OC(CO)C(O)C2F)c(=O)n1 (stereo not drawn),-1.1%,.,-3.5,-3,.,9,7
COc1cccc(C2CC(c3cccs3)=NN2C(=O)CCC(=O)O)c1OC (stereo not drawn),-1.1%,18,1.0,1,19%,6,7
Cc1cccc(C)c1NC(=O)CSc1ncnc2nc[nH]c12,6.3%[38.3 µM],-10,-0.1,-1,7%,-1,0
O=C(Nc1cccnc1)c1cccc(F)c1,1.4%,-4,-7.1,-7,23%,11,14
Cc1ccc(/C=C/C(=O)NCc2cccs2)o1,-1.0%,16,-0.5,-1,10µM*,1,-9
COc1ccc(C2C(C(=O)/C=C/c3ccco3)=C(O)C(=O)N2CCN2CCOCC2)cc1 (stereo not drawn),1.7%,2,3.5,-3,-30%,-1,0
COc1ccc(NC(=O)c2cc(Cl)ccc2Cl)c([N+](=O)[O-])c1,2.9%,-2,4.2,1,4%,-20,-14
O=[N+]([O-])c1cc(C(F)(F)F)ccc1Sc1nccn1Cc1ccccc1,0.0%,?,-2.0,-5,-8%,-14,-17
CC1=CC(C)(C)n2c(O)c(N=N)c3c(C)ccc1c32,0.1%,29,-1.6,3,12%,-25,-17
O=C(Cc1cn2ccsc2n1)NCc1ccccc1,.,9,1.1,-9,-15%,8,0
CC(=O)Nc1ccc(OCC(O)Cn2cncn2)cc1 (stereo not drawn),-0.3%,4,-1.1,4,19%,-2,15
COCCOc1ccc(C(F)(F)F)cc1NC(=O)CN1C(=O)NC2(CCCc3ccccc32)C1=O (stereo not drawn),0.5%,.,-0.5,-4,.,-5,-3
COc1cccc(CN2CCC(C(=O)N3CCN(c4ccccc4F)CC3)CC2)c1OC,-0.7%,7,3.5,-8,-12%,0,10
COc1ccccc1CN1CCN(C(c2ccccc2)c2ccccc2)CC1,?,2,6.5,-3,-9%,-15,-16
Cc1nnc(NC(=O)C(C)Sc2nnc(-c3ccco3)n2C)s1 (stereo not drawn),-1.8%,?,1.2,-4,2%,-1,-7
O=C(COC(=O)c1c2c(nc3ccccc13)CCCCC2)c1ccc(Cl)s1,-1.1%,-4,0.2,-2,?,0,1
Cc1cccc(C)c1NC(=O)C1CCCNC1 (stereo not drawn),0.8%,0,-0.9,8,4%,7,3
Cc1cc(C)n2nc(SCC(=O)N3CC(C)CC(C)C3)nc2n1 (stereo not drawn),-0.3%,.,-1.6,-6,.,-4,-11
Cc1cccc(C(C#N)c2ccc(Cl)nn2)c1 (stereo not drawn),-2.5%,9,-2.4,-1,-6%,-25,-8
CC(C)OCCCn1c(=O)c2ccccc2n2c(CCC(=O)NC3CCN(Cc4ccccc4)CC3)nnc12,0.1%,14,3.6,-13,5%,-9,0
CN(C(=O)c1ccncc1)c1nnc(-c2cnccn2)s1,-1.1%,3,-7.8,-27,2%,4,-14
Cc1c(NC(=O)Nc2cccc(C#N)c2)c(=O)n(-c2ccccc2)n1C,-0.7%,-8,-2.2,1,17%,7,4
CC(=O)NCCNC(=O)CNC(=O)c1ccc(Cl)cc1,-1.4%,-2,1.9,1,6%,7,7
COc1cccc(-c2cc(C(=O)Nc3ccc(OC)c(OC)c3)no2)c1,12%[38.3 µM],-9,-2.9,4,-26%,0,-3
COC(=O)c1cccc(C(=O)Nc2cnc3ccccc3c2)n1,-1.3%,-1,0.6,-1,26%,?,?
O=C(CSC1=NS(=O)(=O)c2ccccc2N1)Nc1ccc(F)cc1,-1.8%,18,0.5,-5,.,-22,3
CC1(C)CN=C(NC2CCCCC2)S1,1.9%[38.3 µM],6,-1.4,-6,1%,9,4

Screens: PubChem, National Center for Advancing Translational Sciences (NCATS)
